# HSD17B inh: HSD17B dehydrogenase inhibition. Q99714. Potency, µM (series often up to 57.1 µM), without a hit: at the top dose activity change, negative = inhibition, hits mostly inhibitors. recombinant HSD17B10, NADH fluorescence kinetic; many of its hits are not listed in these tables. 7.6% of 75,000 active; active = well fitted inhibition curve with a large enough effect; inconclusive = small, poorly fitted or top-dose-only effect; inactive = no such curve, though single readings can be large or run the other way;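 also: the protocol describes HADH2 (HSD17B10) and not the HSD17B4 of the title; nearly all actives have a fitted effect of over 70% in size; most hits overshoot -100% by far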
#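 Enzyme plus compound, 15 min room temperature; substrate mix added (NAD+ 1 mM, beta-hydroxybutyryl-CoA 90 uM final); plates read kinetically for NADH fluorescence. HADH2 was His-tagged, E. coli-derived, 20 nM.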
# An asterisk follows results filed as active; ? = inconclusive; [ ] = another dose, or the depositor's remark. % is scaled to controls: 0 for no effect and ±100 for the full control effect; potency is read from the fitted curve at half-maximal effect. Some of the compounds tested. The share of hits here may be higher or lower than overall.
SMILES,HSD17B inh
COc1ccc(-n2nc3cc(C)c(NC(=O)c4cccnc4)cc3n2)cc1,25.1µM*
COc1ccc(N2C(=O)c3ccc(NC(C)=O)cc3C2=O)cc1,7.1%
CC(=O)c1ccc(NC(=O)C2CCCN2S(=O)(=O)c2ccc(F)cc2)cc1 (stereo unspecified),-9.1%
Nc1cc(Cl)c([N+](=O)[O-])cc1O,-1.2%
Nn1c(CSc2ccccn2)nc2ccccc2c1=O,-8.7%
COc1ccc(/C=C/C(=O)c2cccs2)cc1OC,31.6µM*
C/C(CCN1CCc2nc(-c3ccccc3)c(-c3ccccc3)cc2C1)=N\O[C@@H](C)c1cc(-c2c(C)cc(C)cc2C)no1,-4.6%[11.4 µM]
CSCCC(N=CC1=C(O)CC(C)(C)CC1=O)C(=O)O (stereo unspecified),0.2%
CCC(Sc1nc2ccccc2c(=O)n1CCN1CCOCC1)C(=O)NCc1cccnc1 (stereo unspecified),11.8%
O=C(CSc1nnc(-c2ccco2)o1)NC(=O)C1COc2ccccc2O1 (stereo unspecified),?
Cc1cc2c(nn1)CCc1nonc1-2,6.9%
COC(=O)c1ccc(COc2ccc3c4c(c(=O)oc3c2)CCC4)o1,12.6µM*
O=C(CC1(O)C(=O)Nc2ccccc21)c1cccnc1 (stereo unspecified),-8.0%
C=CCOC(=O)COCCC(C)C,4.4%
CN(C)S(=O)(=O)c1cccc(-c2cn3ccccc3n2)c1,20µM*
Cc1cc(C)c(S(=O)(=O)Nc2ccc[nH]c2=O)c(C)c1,-10.5%
CC(=O)c1cc2c(O)c(O)ccc2o1,?
COC(=O)c1ccccc1NC(=O)c1cc(-c2cccc(OC)c2)on1,4.5%
O=C(CSc1nc2c(c(=O)n1-c1ccccc1)SCC2)N1CCOCC1,1.2%
CCCCOC(=O)Cc1c(O)c2ccccc2[nH]c1=O,?

# Some of the entries above in another layout.
mol	HSD17B inh
O=C(CSc1nnc(-c2ccco2)o1)NC(=O)C1COc2ccccc2O1 (stereo unspecified)	?
Cc1cc2c(nn1)CCc1nonc1-2	6.9%
COC(=O)c1ccc(COc2ccc3c4c(c(=O)oc3c2)CCC4)o1	12.6µM*
O=C(CC1(O)C(=O)Nc2ccccc21)c1cccnc1 (stereo unspecified)	-8.0%

# (continued)
SMILES,HSD17B inh
CC(=O)c1ccc(N2CCN(C(=O)c3cc(-c4ccc5c(c4)OCO5)nc4ccccc34)CC2)cc1,?
NC(=O)NCCC[C@H](N)C(=O)O,12.9%
Cc1cccc(NC(=O)C2CCN(c3nc(C)cc(C)n3)CC2)c1,-0.3%
CC1(C)CC(=O)C2=C(C1)N=C1SCCC(=O)N1C2c1ccccc1 (stereo unspecified),25.7%
O=C(Cn1nnc(-c2cc(Cl)ccc2-n2cnnn2)n1)N1CCCc2ccccc21,1.6%
COC(=O)C1=C(C)Nc2c(c(=O)n(C)c(=O)n2C)C1c1cccs1 (stereo unspecified),-1.5%
COC(=O)[C@@]1(Cc2ccc(OC)cc2)[C@H]2c3cc(C(=O)N(C)C)n(CCc4c[nH]c5ccc(O)cc45)c3C[C@H]2CN1C(=O)c1ccccc1,5.2%
COc1ccc(-n2c(Cn3c(=O)sc4ccccc43)nnc2SCC(=O)N2CCCC2)cc1,2.5%
O=C(C1CC1)N1CCc2cc(Br)cc(S(=O)(=O)N3CCCCCC3)c21,-2.1%
Cc1cc(C)c(C#N)c(Nc2ccc3c(c2)OCCO3)n1,?
O=C(c1csnn1)N1CCC2(CC1)CCN(c1ccncc1)CC2,-6.0%
COc1cc(Br)cc2cc(C(=O)N3CCN(C(=O)c4ccco4)CC3)c(=O)oc12,-13.1%
Cc1cc2c(=O)n(Cc3ccco3)c(SCC(=O)c3ccc(Cl)s3)nc2s1,-18.9%
COc1ccc(-n2c(C)cc(C(=O)CSc3nnc(-c4ccoc4C)n3C)c2C)cc1,1.3%
CC1CCc2nn(CC(=O)NCc3ccc4c(c3)OCO4)cc2C1 (stereo unspecified),3.7%
COc1cc2c(C)nc3onc(-c4ccccc4)c3c2cc1OC,1.4%
Cn1c(=O)c2c3c(sc2n2c(SCc4ccc5c(c4)OCO5)nnc12)COC(C)(C)C3,-2.3%
O=C(c1cc(-c2ccccc2)nc2ccccc12)N1CCN(c2ccccn2)CC1,-0.5%
O=C(NCCn1ccc2ccccc21)c1ccc(S(=O)(=O)N2CCOCC2)cc1,7.4%
COC(=O)[C@@]1(Cc2ccc(F)cc2)[C@H]2c3cc(C(=O)N4CCCC4)n(Cc4ccc(C(F)(F)F)nc4)c3C[C@H]2CN1C(=O)c1ccccc1,3.3%

# 4 entries from above, ordered by molecular weight, high to low:
SMILES,HSD17B inh
O=C(NCCn1ccc2ccccc21)c1ccc(S(=O)(=O)N2CCOCC2)cc1,7.4%
COC(=O)C1=C(C)Nc2c(c(=O)n(C)c(=O)n2C)C1c1cccs1 (stereo unspecified),-1.5%
CC1(C)CC(=O)C2=C(C1)N=C1SCCC(=O)N1C2c1ccccc1 (stereo unspecified),25.7%
COc1cc2c(C)nc3onc(-c4ccccc4)c3c2cc1OC,1.4%

# Later entries.
SMILES,HSD17B inh
O=C(c1ccco1)N1CCC2(CCN(Cc3ccncc3)CC2)CC1,4.8%
CCOc1ccc(N(CC(=O)OC)S(=O)(=O)c2ccc(OC)c(OC)c2)cc1,-2.8%
N#Cc1c(SCC(N)=O)nc(-c2ccccc2)c2c1CCCC2,-2.3%
O=C(Nc1ccc2c(c1)OCO2)c1cccc(F)c1,6.5%
C=C(Br)CN(C)CC(=C)Br,2.3%[11.4 µM]
COC(=O)C1=C(C)NC(C)=C(C(=O)OC)C1c1ccccc1OCc1c(C)no[n+]1[O-],-8.6%
CCOC(=O)C(NC(C)=O)(N1CCc2ccccc2C1)C(F)(F)F (stereo unspecified),1.4%
CN(C)Cc1ccccc1-c1cc(NCc2cccs2)ncn1,-0.7%
COc1ccc(S(=O)(=O)Nc2ccc(C(F)(F)F)cc2)cc1OC,-0.9%
CCN1CCN(CCNC(=O)C2CCCN(Cc3nc(-c4cccc(Cl)c4)oc3C)C2)CC1 (stereo unspecified),-0.7%
COc1ccc(S(=O)(=O)Nc2ccccc2SC)cc1C,-14.1%
CCn1c(C)c(C(C)=O)c(N2CCN(C(=O)c3ccco3)CC2)nc1=S,-1.4%
COc1ccc(C2SCCN2S(=O)(=O)c2ccccc2)cc1OC (stereo unspecified),0.2%
Cc1ccc(S(=O)(=O)C2(C(=O)N3CCN(C4CCCCC4)CC3)CC2)cc1,5.1%
C[N+]1(CCC(=O)c2ccco2)CC2CCC(CC2)C1 (stereo unspecified),-6.1%[11.4 µM]
CCOC(=O)c1ccccc1NC(=O)CSc1nnnn1C1CCCCC1,-9.2%
NC(=O)C1CCCNC1 (stereo unspecified),10.1%
CCC(=O)N1C(C(=O)O)CSC1c1ccc(OC)cc1 (stereo unspecified),5.2%
CC(=O)c1ccc(-n2nncc2C(C)(C)C)cc1,12.0%
Cc1ccnc(NC(=O)c2cc(S(=O)(=O)N3CCCCC3)ccc2Cl)c1,20µM*
CC(C)(C)Cc1nnc(NS(=O)(=O)Cc2ccccc2)s1,-1.7%
CC1(C)CC(=O)c2cnc(NC(=O)Cc3ccc(Cl)cc3)nc2C1,-1.3%
Nc1nc2n(n1)C1(CCCCC1)C1=C(CCCC1)N2,-3.8%
CCn1c(SCC(=O)Nc2nc(-c3ccccc3)cs2)nnc1-c1ccccc1,-5.1%
CC1=C(C)CC(c2ccccc2)C(C(=O)c2ccccc2O)C1 (stereo unspecified),1.5%[11.4 µM]
Cc1cc(C)n(-c2cc(-n3nc(C)cc3C)ncn2)n1,-4.1%
CCN(CC)C(=O)C1CCCc2c1[nH]c1ccc(Cl)cc21 (stereo unspecified),-9.6%
C1=Nc2c(Nc3ccccc3)ncnc2Oc2ccccc21,1.9%
COc1ccc(CC(=O)c2cc(OC)c(OC)cc2CC(=O)O)cc1OC,12.4%
O=C(O)C1Nc2c(C(=O)N3CCOCC3)cccc2C2C=CCC12 (stereo unspecified),?
CCOC(=O)Nc1ccc(C(=O)Oc2ccccc2)c(O)c1,443.1%[activator]
CC(C)(C)c1ccc(C(=O)Nc2cnccn2)cc1,-14.6%
C=C(C)CC1N(c2cccc(OC)c2)C(=O)C2C(C(=O)O)C3C=CC21O3 (stereo unspecified),-3.7%
COc1cc(CC(=O)O)ccc1O,-1.8%
CO/N=C(/C(=O)NC1C(=O)N2C(C(=O)O)=C(COC(N)=O)CSC12)c1ccco1 (stereo unspecified),-8.1%
CCOC(=O)N1CCC(Nc2nc3ccccc3n3cnnc23)CC1,-0.2%
CSCCC(NC(=O)c1ccccc1)c1nc(-c2ccccc2)no1 (stereo unspecified),0.1%
CC(=O)NC(C)C(=O)OCc1ccc(Cl)cc1Cl (stereo unspecified),5.8%
O=C1CCCc2c1nn(-c1ccccc1)[n+]2[O-],2.3%
O=C(Nc1cccc(F)c1)N1CCC2(CC1)CCN(S(=O)(=O)c1ccccc1)CC2,3.3%
CN(C)/C=C/c1c(C#N)c(=O)ncn1Cc1ccccc1,-7.1%
C=C(C)[C@H]1CC[C@]2(C(=O)O)CC[C@]3(C)[C@@H](CC[C@H]4[C@@]5(C)CC[C@@H](O)C(C)(C)[C@@H]5CC[C@@]43C)[C@H]12,-27.6%[25.6 µM]
CCCCN(C(=O)c1ccco1)c1nnc(-c2cc(OC)c(OC)c(OC)c2)s1,15.8µM*
COc1ccc(-c2nc3cnc(Nc4cccc(OC)c4)nc3n(C)c2=O)cc1,12.6%
CCCc1cc(C(=O)Cc2ccc(C(=O)OCC)o2)c(O)cc1O,-20.3%
Nc1ccccc1N,2.1%
CCC1=C(OC(=O)N(CC)CC)N2C(=O)OC(=NCC3CC3)[C@]2(Cc2ccccc2)[C@H]2C1=CC[C@H]1C(=O)N(C)C(=O)[C@H]12,-4.0%
COc1ccccc1-n1nc(C(=O)NCc2ccco2)c2ccccc2c1=O,-2.5%
O=C1NCCCC1C(=O)Nc1ccccn1 (stereo unspecified),14.3%
COC(=O)C1=C(C)NC(=O)NC1c1ccccc1 (stereo unspecified),7.5%
Cc1cc(C)c2nc(-c3ccccn3)cc(C(=O)NCc3ccco3)c2c1,25.1µM*
CCOC(=O)c1cnc2nc(COc3ccccc3)[nH]n2c1=O,2.9%
O=c1c2ccccc2nc2n1CCN2,25.1µM*
O=C(NCCN1CCCC1)c1ccc2c(=O)n(CCc3ccccc3)c(=O)[nH]c2c1,15.8µM*
Cc1ccc(OCC(=O)N2CCCCCC2)c(C)c1,5.9%
Cc1cc(C)n2c(SCC(=O)Nc3ccccc3)nnc2n1,3.2%
Cn1c(C(=O)O)c(CC(=O)Nc2ccc(F)cc2F)c2ccccc21,5.6%
FC(F)(F)c1cnc(Nc2ccc(N3CCOCC3)cc2)c(Cl)c1,-7.5%
CCNC(=O)C1CC(=O)N(Cc2ccc3c(c2)OCO3)C(=Nc2ccc(F)cc2)S1 (stereo unspecified),6.8%
COc1cccc(S(=O)(=O)N2CCN(c3ccccc3F)CC2)c1,8.5%
# The listing continues:
SMILES,HSD17B inh
OCc1nc2ccccc2n1CC(O)COc1ccccc1 (stereo unspecified),11.7%
CCC(c1nnnn1Cc1ccc2c(c1)OCO2)N1CCN(c2ccc(OC)cc2)CC1 (stereo unspecified),5.8%
O=C(CSc1nnc(CNc2ccc(F)cc2)n1Cc1ccco1)N1CCCC1,?
CN(C)Cc1cc(C(C)(C)c2cc(CN(C)C)c(O)c(CN(C)C)c2)cc(CN(C)C)c1O,-5.3%
C[C@@H](C(=O)Nc1ccc2ccccc2c1)[C@@H]1C[C@@]1(C)[C@@H](NS(=O)(=O)c1ccccc1)c1ccccc1,17.0%
CC(C)NC(=O)CN(C)S(=O)(=O)c1ccc(F)cc1,8.8%
Cc1nc2ccccc2c2c1C(=O)N(C(C)C)C2=O,7.6%
CC(C)c1ccc(-c2nnn(Cc3nc4ccccc4s3)n2)cc1,-0.3%
O=C(Nc1cccnc1)c1ccc(Oc2ccccc2)cc1,2.8%
COc1ccc(C(=O)N2CCC[C@@]3(CCN(C(=O)NC(C)C)C3)C2)cc1,3.9%
Clc1ccc2oc(-c3ccccn3)nc2c1,25.1µM*
O=C(NCc1ccccn1)c1cc(-c2ccccc2)on1,1.0%
O=C(Nc1nc(-c2ccccn2)cs1)C1COc2ccccc2O1 (stereo unspecified),8.1%
CCc1nc(SC)[nH]c(=O)c1C,-9.6%
COC(=O)[C@@]1(Cc2ccc(OC)cc2)[C@H]2c3cc(C(=O)N(C)C)n(Cc4ccccn4)c3C[C@H]2CN1C(=O)c1ccccc1,-10.9%
CSCc1nnc(NC(=O)c2ccc(S(=O)(=O)N(CC(C)C)CC(C)C)cc2)o1,-2.8%
CCn1cc(C(=O)NC2CCCCC2)c(=O)c2cc(S(=O)(=O)N(C)C)ccc21,1.9%
CCN(CC)c1ccc(/C=N/n2c(=S)[nH]nc(C)c2=O)cc1,-4.0%
CN(C)CCc1c[nH]c2ccc(Cn3cncn3)cc12,-4.8%
CC1=C(C(=O)OCC2CCCO2)C(c2ccc(C)o2)C2=C(CC(c3ccc(N(C)C)cc3)CC2=O)N1 (stereo unspecified),-9.0%
Cc1ccnc(NC(=O)CCC(=O)N(CC(=O)NCCc2ccccc2)Cc2ccco2)c1,14.3%
O=C(NCc1ccco1)c1ccc2c(=O)n(CCC3=CCCCC3)c(=O)[nH]c2c1,31.6µM*
CCCCNc1nc2ccccc2n1CC(=O)N1CCc2ccccc2C1,5.4%
O=C1c2ccccc2NC(c2ccccn2)N1c1ccc(Cl)cc1 (stereo unspecified),25.1µM*
CCCCCn1c(N(C)Cc2ccccc2)nc2c1c(=O)[nH]c(=O)n2C,3.6%

# Structures above with a cyano group (3):
SMILES,HSD17B inh
Cc1cc(C)c(C#N)c(Nc2ccc3c(c2)OCCO3)n1,?
N#Cc1c(SCC(N)=O)nc(-c2ccccc2)c2c1CCCC2,-2.3%
CN(C)/C=C/c1c(C#N)c(=O)ncn1Cc1ccccc1,-7.1%
